High-throughput results (PubChem)
NS1 function inh – inhibitors of influenza NS1 protein function | S. cerevisiae slowed by influenza A NS1, growth recovery by OD600 | Potency, µM (highest dose often 46.1 µM), for inactives: at the highest dose activity, positive = more growth | 0.4% of 270,000 active; also: actives are rising curves; nearly all actives have a fitted effect of over 50% in size
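In this qHTS, NS1 from influenza A is expressed in budding yeast, where it slows growth. Cells are switched from glucose to 2% galactose medium (pH 6.0, -URA), treated with compound, and growth recovery is read at OD600.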
Marburg entry inh – inhibitors of Marburg virus binding or cell entry; Marburg virus pseudotyped entry inhibition, cell reporter; control for the full effect not named in the record; about a third of the inactives were read at about 46 µM; Potency, µM (series often up to 37.8 µM), without a hit: at the top dose activity change, negative = inhibition, actives largely listed as inhibitors; 1.8% of 300,000 active; AID 540276; active = well fitted inhibition curve with a large enough effect; inconclusive = small, poorly fitted or top-dose-only effect, or effect the other way; inactive = flat fitted curve, though single readings scatter; tested in HEK293 cells; about a fifth of its hits are not listed in these tables; also: % is scaled to controls: 0 for no effect and ±100 for the full control effect; luciferase read-out
RE007 growth inh – less growth of the S. pombe RE007 Vpr strain | 0.21% of 360,000 active | Potency, µM (series often up to 92.2 µM), for the others: at the highest dose activity change, negative = less growth | S. pombe RE007 Vpr strain, BacTiter-Glo ATP luminescence, 24 h; control for the full effect not named in the record; active = well fitted falling curve with a large enough effect; inconclusive = small, poorly fitted or top-dose-only effect; inactive = no such curve, though single readings can be large or run the other way;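 also: % is scaled to controls: 0 for no effect and ±100 for the full control effect; nearly all actives have a fitted effect of over 50% in size; the assay follows cell death caused by Vpr and the record does not say whether a fall means rescue or toxicity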
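Fission yeast RE007 carrying one integrated HIV-1 vpr copy, seeded at OD 0.01 in PMG+AL medium with 23 nL pinned compound. Grown 24 h at 30 degrees; viability read by BacTiter-Glo luminescence after 5 min.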
SARS PLpro yeast – inhibitors of SARS-CoV papain-like protease in yeast. S. cerevisiae expressing SARS-CoV PLpro, growth rescue; control for the full effect not named in the record. Potency, µM (doses to about 32.9 µM), inactives show at the top dose activity, positive = growth rescue. 0.19% of 330,000 active; also: 0% is about no effect; nearly all actives have a fitted effect of over 55% in size; growth read by luminescence after 48 h
LASV entry inh – inhibitors of Lassa virus binding or cell entry; Lassa virus pseudotype entry inhibition, cell reporter; control for the full effect not named in the record; Potency, µM (series often up to 37.9 µM), for inactives: top-dose activity change, negative = inhibition, hits mostly inhibitors; 1.2% of 300,000 active; AID 540256; active means well fitted inhibition curve with a large enough effect; inconclusive means small, poorly fitted or top-dose-only effect, or effect the other way; inactive means flat fitted curve, though single readings scatter; tested in HEK293 cells; also: % is scaled to controls: 0 for no effect and ±100 for the full control effect; nearly all actives have a fitted effect of over 50% in size; luciferase read-out
Cruzain inh noDet – blocks cruzain activity in detergent-free assay. purified cruzain, Z-FR-AMC fluorescence, no detergent. AID 1476. P25779. Potency, µM, for the others: max response, negative = inhibition, most hits filed as inhibitors. 2.3% of 200,000 active; active = well fitted curve in the direction sought with a large enough effect; inconclusive = small, poorly fitted or top-dose-only effect, or another doubt; inactive = no such curve, though single readings can be large; an effect the other way counts as inactive or inconclusive;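 also: plate controls were enzyme without inhibitor for no effect and buffer without enzyme for full effect; nearly all actives have a fitted effect of over 40% in size; top concentration of the series not given in the record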
Target sequence (P25779 123-467 limits assumed): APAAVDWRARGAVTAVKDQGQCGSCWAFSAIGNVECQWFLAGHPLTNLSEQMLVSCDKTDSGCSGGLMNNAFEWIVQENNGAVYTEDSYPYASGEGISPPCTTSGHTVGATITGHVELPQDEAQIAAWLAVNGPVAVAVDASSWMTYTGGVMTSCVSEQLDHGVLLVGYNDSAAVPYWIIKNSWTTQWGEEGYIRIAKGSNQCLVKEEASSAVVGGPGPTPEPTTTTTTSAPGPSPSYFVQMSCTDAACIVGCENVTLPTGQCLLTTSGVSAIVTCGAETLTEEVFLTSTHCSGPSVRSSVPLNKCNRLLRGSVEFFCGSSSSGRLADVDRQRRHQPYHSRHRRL
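Detergent-free condition (0.00005% Triton X-100) in acetate buffer pH 5.5 with DTT. 1.5 nM enzyme and compound were pre-mixed 15 min, then 2 uM Z-FR-AMC substrate added; reaction progress from fluorescence change between first and third reads (60 s).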
Cruzain Triton – inhibitors of Trypanosoma cruzi cruzain with detergent; P25779; purified cruzain, Z-FR-AMC fluorescence, 0.01% Triton; Potency, µM, inactives show max response, negative = inhibition, most hits filed as inhibitors; 0.43% of 200,000 active; AID 1478; active = well fitted curve in the direction sought with a large enough effect; inconclusive = small, poorly fitted or top-dose-only effect, or another doubt; inactive = no such curve, though single readings can be large; an effect the other way counts as inactive or inconclusive;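 also: plate controls were neutral wells for no effect and buffer without enzyme for full effect; nearly all actives have a fitted effect of over 40% in size; top concentration of the series not given in the record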
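Enzyme 1.5 nM, Z-FR-AMC 2 uM, NaOAc 100 mM pH 5.5, DTT 5 mM, Triton X-100 0.01%; 15 min RT compound preincubation; kinetic ex360/em450, 60 s delta.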
2A StopGo – FMDV 2A StopGo reporter, luciferase signal; AID 1159524; human cells with a luciferase reporter of 2A StopGo recoding; control for the full effect not named in the record; 1.2% of 410,000 active; Potency, µM (series often up to 57.9 µM), for inactives: at the highest dose signal change, negative = less light; active = well fitted falling curve with a large enough effect; inconclusive = small, poorly fitted or top-dose-only effect; inactive = no such curve, though single readings can be large or run the other way; tested in HEK293T cells; also: % is scaled to controls: 0 for no effect and ±100 for the full control effect; nearly all actives have a fitted effect of over 45% in size; luciferase light after 4 h
Starred values were filed as active, the others as inactive; ? = inconclusive; . = no result given; & = joins results of further samples; [ ] = another dose, or the depositor's remark. Unless noted, calls follow the shape of the dose curve; as a rule, active means well fitted rising curve with a large enough effect; inconclusive means small, poorly fitted or top-dose-only effect; inactive means no such curve, though single readings can be large or run the other way. Potency is read from the fitted curve at half-maximal effect. Hits appear at their usual frequency; any-hit rate near 4.7%.

structure	NS1 function inh	Marburg entry inh	RE007 growth inh	SARS PLpro yeast	LASV entry inh	Cruzain inh noDet	Cruzain Triton	2A StopGo
CCOc1ccc(NS(=O)(=O)c2cc(C(=O)NCC3CCCO3)ccc2Cl)cc1 (stereo not given)	.	0%[46.1 µM]	-12%	2%	-26%	.	.	41%[activator]
CCOC(=O)c1c(C)n(CC(O)CN2CCOCC2)c2cc(Br)c(OC)cc12 (stereo not given)	.	-27%[46.1 µM]	-20%	-1%	-12%	.	.	-23%
C=CCc1cc(Cl)ccc1OCCCn1ccnc1	-46%	.	-15%	-5%	.	.	.	-13%
Cc1noc(C)c1COc1ccc(C(=O)OCC(=O)N2CC3(C)CC2CC(C)(C)C3)cc1 (stereo not given)	-37%	?	4%	-1%	?	?	-2.2%	-19%
N#Cc1nnn(-c2ccc(Cl)cc2)c1N	4%&1%	.	-15%	0%&1%	.	.	.	-14%
Cc1cc2c(cc1S(=O)(=O)N1CCCC1)n(C)c(=O)c(=O)n2C	10%	.	1%	1%	.	.	.	-6%
O=C(NCc1ccc(-c2csnn2)cc1)C1CC1	5%	-1%[46.1 µM]	-2%	1%	-11%[46.1 µM]	.	.	1%
CCOc1c(Cl)cc(C(=O)Nc2ccccc2C(=O)O)cc1Cl	-133%	18%&18%	16%[3.69 µM]	-5%	?	1%	-15%	8%
O=C(CSc1nnc(CNc2cccc(C(F)(F)F)c2)n1Cc1ccco1)NCc1ccco1	10%	-3%	3%	-3%	-5%	-3%	1.8%	-9%
Nc1nnc(SCC(=O)Nc2ccc(Cl)c(C(=O)O)c2)s1	.	-2%[46.1 µM]	14%	0%	0%	.	.	-13%
CN(Cc1ccccc1)C(=O)COC(=O)CCC(=O)c1ccc(Cl)cc1	.	0%	22%	-1%	1%	.	.	-10%
Cc1cccc(N=c2c([N+](=O)[O-])nn(-c3ccc(Cl)cc3)n2O)c1	-4%	11%[46.1 µM]	10%	-8%	23%	.	.	-8%
CCOc1ccc(NC(=O)CSc2ccc(-c3cccnc3)nn2)cc1	-4%	9%	-9%	0%	-20%	.	.	-21%
COc1ccc(S(=O)(=O)N2CCN(C(=O)N3CCOCC3)C2C)cc1 (stereo not given)	-3%	-14%[46.1 µM]	-3%	-8%	?	.	.	-7%
CCOC(=O)CCNCc1ccc(OC)c(OC)c1	-1%	.	9%	1%	.	.	.	-5%
COc1ccc(NC(=O)COC(=O)CNS(=O)(=O)c2ccc(F)c(F)c2F)cc1OC	-4%	-3%	8%	-2%	-1%	?	?	0%
CCOc1ccc(S(=O)(=O)N2CCCC(C(=O)NCc3ccncc3)C2)cc1Cl (stereo not given)	8%	?	-5%	-13%	17%[46.1 µM]	.	.	1%
Cc1ccc(C(=O)NC2CCS(=O)(=O)C2)cc1S(=O)(=O)N1CCOCC1 (stereo not given)	-24%	-3%	-6%	-1%	-24%	0%	4.2%	9%
O=C(CC1(O)C(=O)N(CCc2ccccc2)c2ccc(Br)cc21)c1ccccc1O (stereo not given)	.	-27%[46.1 µM]	.	.	?	-14%	-11%	6%
Cn1cc([N+](=O)[O-])c(C(=O)Nc2ccn(Cc3c(F)c(F)cc(F)c3F)n2)n1	8%	4%	6%	4%	-20%	-4%	-0.1%	-19%
Cc1cccn2c(=O)c3cc(C(=O)NCCCN4CCCC4=O)n(C)c3nc12	-33%	11%	1%	5%	10%	?	-9.3%	.
O=C(Cc1ccccc1)NC(Nc1cccc2ccccc12)C(Cl)(Cl)Cl (stereo not given)	-3%	-3%	-9%	9%	-4%	-9%	-1.7%	-9%
Fc1ccc(CNc2nc(-c3cccnc3)nc3ccccc23)cc1	-38%	?	-5%	-13%	-1%[46.1 µM]	.	.	-20%
COc1ccc(NC(=O)c2cc3ccccc3cc2OC)cc1	-56%	-24%	-23%	?	?	.	.	14%
CC1=NS(=O)(=O)NC(C)(C)C1	.	-3%	-14%	.	19%	.	.	-9%

Following part.
structure	NS1 function inh	Marburg entry inh	RE007 growth inh	SARS PLpro yeast	LASV entry inh	Cruzain inh noDet	Cruzain Triton	2A StopGo
CN1CCN(C(=O)CCc2nc3ccccc3n2-c2ccccc2)CC1	2%	2%	1%	-3%	6%	-3%	-1.7%	-19%
CCOC(=O)Cc1nnc(NC(=O)CSc2nnc3c4ccccc4n(C)c3n2)s1	22%	-1%	-4%	-2%	3%	?	-4.1%	.
COc1ccc(OC)c(C2C3CN(C(C)C)CC=C3C(C#N)=C(N)C2(C#N)C#N)c1 (stereo not given)	-2%	-1%	-12%	5%	?	-9%	-6.3%	-8%
O=C(CC1NCCN(Cc2ccccc2)C1=O)Nc1ccc(Cl)cc1 (stereo not given)	3%	-15%[46.1 µM]	-3%	0%	-10%	.	.	11%
Cc1ccc(CN2CCN(/N=C/c3cccnc3)CC2)cc1	1%	-6%	7%	3%	12%	-5%	-0.1%	-16%
O=C(NCc1ccco1)C(c1ccc(F)cc1)N(C(=O)Cc1cccs1)c1cccnc1 (stereo not given)	2%	7%	-8%	-1%	-16%	.	.	-9%
COc1cc2c(cc1OC)C(C)N(C(=O)/C=C/c1cc(OC)c(OC)c(OC)c1)CC2 (stereo not given)	-1%	.	4%	-1%	.	.	.	-35%
CC(=O)CC(=O)NC(=NC1CCCCC1)Nc1nc(C)cc(C)n1	?	?	3%	1%	-6%	-4%	-3.0%	-11%
CCn1c(CSc2nc(C)cc(C)n2)nnc1SCC(N)=O	-1%	1%[46.1 µM]	-14%	-1%	-1%[46.1 µM]	.	.	-15%
CCOC(=O)c1c(NC(=O)c2cc(-c3ccc(Br)cc3)on2)sc(C)c1C	.	-4%[46.1 µM]	.	.	-9%[46.1 µM]	-7%	-1.8%	8%
O=C(CNC(=O)c1cccc(F)c1)OCC(=O)N1CCCc2ccccc21	16%	12%	-7%	5%	?	10µM*	11µM*	-9%
Cc1ccc(/C=N/NC(=O)C2(O)c3ccccc3-c3ccccc32)o1	-4%	-9%	6%	13%	3%	-4%	-7.5%	-16%
Cc1onc(-c2ccccc2)c1C(=O)OCC(=O)NC(=O)c1ccccc1	.	16%	-16%	-8%	2%	.	.	-3%
CCc1ccccc1Nc1sc(C(=O)c2ccccc2)c(N)c1S(=O)(=O)c1ccccc1	.	?	.	.	?	6.3µM*	-4.1%	-4%
O=C(c1ccc2c(=O)n3c(nc2c1)CCCCC3)N1CCN(c2ccc(Cl)cc2)CC1	-3%	.	9%	1%	.	.	.	-5%
Cn1c(SCC(=O)NC2CCCC2)nc2c(c1=O)SCC2	-7%	-4%[46.1 µM]	2%	4%	?	.	.	-4%
Cc1cc(NC(=O)c2cc(-c3ccccn3)nc3c(Cl)cccc23)no1	11%	-19%	2%	2%	-27%	.	.	-22%
COCCNC(=O)C(OC(=O)c1ccco1)c1ccc(OC)cc1 (stereo not given)	.	5%[46.1 µM]	1%	.	?	.	.	?
Cc1ccc(C)c2[nH]c(=O)c(CN(Cc3cccs3)C(=S)NCc3ccco3)cc12	27%	-12%	-1%	20%	-5%	20µM*	-1.8%	2%
Cc1ccc(N2C(=O)NC(=O)/C(=C\c3ccc(N4CCOCC4)cc3)C2=O)cc1	-6%	2%	18%	19%	-7%	11%	-1.5%	0%
CN(C(=O)COC(=O)c1ccc(Cl)c(S(=O)(=O)NCc2ccccc2)c1)C1CCS(=O)(=O)C1 (stereo not given)	.	?	-15%	.	1%	.	.	54%[activator]
O=C(CCC(=O)OCC(=O)c1ccccc1)Nc1cccc(Cl)c1	-15%	-28%	-6%	-4%	14%	-5%	-3.1%	-12%
CCOC(=O)C1C(=O)NC(c2ccccc2)=NC1c1ccc(O)c(OC)c1 (stereo not given)	5%	3%[46.1 µM]	30%	1%	7%[46.1 µM]	.	.	11%
CCOC(=O)c1ccc(NCc2cccnc2)cc1	-28%	.	-7%	-4%	.	.	.	59%[activator]
CCOc1ccccc1NC(=O)c1csc(C)c1C	-38%	.	-24%	-4%	.	.	.	0%

Reprinted at random: three records from the list
structure	NS1 function inh	Marburg entry inh	RE007 growth inh	SARS PLpro yeast	LASV entry inh	Cruzain inh noDet	Cruzain Triton	2A StopGo
CCn1c(CSc2nc(C)cc(C)n2)nnc1SCC(N)=O	-1%	1%[46.1 µM]	-14%	-1%	-1%[46.1 µM]	.	.	-15%
Cc1onc(-c2ccccc2)c1C(=O)OCC(=O)NC(=O)c1ccccc1	.	16%	-16%	-8%	2%	.	.	-3%
O=C(CNC(=O)c1cccc(F)c1)OCC(=O)N1CCCc2ccccc21	16%	12%	-7%	5%	?	10µM*	11µM*	-9%

Additional results
structure	NS1 function inh	Marburg entry inh	RE007 growth inh	SARS PLpro yeast	LASV entry inh	Cruzain inh noDet	Cruzain Triton	2A StopGo
O=C(c1cccc(Cl)c1)C1CCCN(S(=O)(=O)c2ccccc2)C1 (stereo not given)	-8%	.	0%	-2%	.	.	.	-28%
CCOC(=O)C1=C(O)/C(=C\c2ccc(CNC(=O)C(=O)Nc3ccccc3)o2)N=C1C	26%	28%	3%	-3%	-10%	?	-19%	18%
Cc1c(C#N)c2ccccc2n1CC(=O)N1CCCC1	0%	5%[46.1 µM]	2%	4%	-19%	-10%	-4.6%	1%
COCCNC(=S)N1CCc2cc(OC)c(OC)cc2C1COc1ccc(C(C)C)cc1 (stereo not given)	4%	13µM*	-24%	-2%	?	?	-8.2%	-26%
Cc1cccn2c(=O)c3cc(S(=O)(=O)c4ccccc4)c(=N)n(Cc4ccco4)c3nc12	11%	7%[46.1 µM]	4%	1%	5%[46.1 µM]	.	.	18%
Cc1cc(C)cc(OCC(=O)Nc2ccccc2C(=O)NCc2ccco2)c1	?	?	3%	-2%	18%	?	-3.0%	11%
